Beta2AR agonist: beta2AR agonists driving receptor internalization, primary screen, cell-based, FAP fluorogen, flow cytometry; response, % (test concentration not listed); 340,000 compounds, 0.43% hits; AID 504454, 2011; Am2.2-beta2AR cells; reference of the scale not given here; Beta-2 adrenergic receptor (Homo sapiens), P07550;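 active = response above a set limit, near 3 SD of response in nonfluorescent compounds, cut at about 42% in these data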;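 also: stock transfer was 100 nL into about 11 µL; a reference agonist was the positive control; negative values mostly stem from fluorescent compounds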
LANA-H2A inh: blockers of LANA interaction with H2A/H2B – biochemical, FP readout, HTS, primary screen; Protein LANA1 (Human herpesvirus 8 type P (isolate GK18)), Q9QR71; cell-free LANA-H2A/H2B peptide, fluorescence polarization; inhibition, % (concentration not given with the values); 320,000 compounds, 0.6% hits; AID 2629, 2010; in the data active = inhibition mostly above about 10%, no sharp cut-off; inactive = mostly below about 6.7%;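 also: stock transfer was 7.5 nL into about 10 µL; 0% = median of vehicle wells and 100% = median of positive control wells; one replicate is shown; the record names a cut of 25% in any replicate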
Target sequence (Q9QR71 whole entry, looked up): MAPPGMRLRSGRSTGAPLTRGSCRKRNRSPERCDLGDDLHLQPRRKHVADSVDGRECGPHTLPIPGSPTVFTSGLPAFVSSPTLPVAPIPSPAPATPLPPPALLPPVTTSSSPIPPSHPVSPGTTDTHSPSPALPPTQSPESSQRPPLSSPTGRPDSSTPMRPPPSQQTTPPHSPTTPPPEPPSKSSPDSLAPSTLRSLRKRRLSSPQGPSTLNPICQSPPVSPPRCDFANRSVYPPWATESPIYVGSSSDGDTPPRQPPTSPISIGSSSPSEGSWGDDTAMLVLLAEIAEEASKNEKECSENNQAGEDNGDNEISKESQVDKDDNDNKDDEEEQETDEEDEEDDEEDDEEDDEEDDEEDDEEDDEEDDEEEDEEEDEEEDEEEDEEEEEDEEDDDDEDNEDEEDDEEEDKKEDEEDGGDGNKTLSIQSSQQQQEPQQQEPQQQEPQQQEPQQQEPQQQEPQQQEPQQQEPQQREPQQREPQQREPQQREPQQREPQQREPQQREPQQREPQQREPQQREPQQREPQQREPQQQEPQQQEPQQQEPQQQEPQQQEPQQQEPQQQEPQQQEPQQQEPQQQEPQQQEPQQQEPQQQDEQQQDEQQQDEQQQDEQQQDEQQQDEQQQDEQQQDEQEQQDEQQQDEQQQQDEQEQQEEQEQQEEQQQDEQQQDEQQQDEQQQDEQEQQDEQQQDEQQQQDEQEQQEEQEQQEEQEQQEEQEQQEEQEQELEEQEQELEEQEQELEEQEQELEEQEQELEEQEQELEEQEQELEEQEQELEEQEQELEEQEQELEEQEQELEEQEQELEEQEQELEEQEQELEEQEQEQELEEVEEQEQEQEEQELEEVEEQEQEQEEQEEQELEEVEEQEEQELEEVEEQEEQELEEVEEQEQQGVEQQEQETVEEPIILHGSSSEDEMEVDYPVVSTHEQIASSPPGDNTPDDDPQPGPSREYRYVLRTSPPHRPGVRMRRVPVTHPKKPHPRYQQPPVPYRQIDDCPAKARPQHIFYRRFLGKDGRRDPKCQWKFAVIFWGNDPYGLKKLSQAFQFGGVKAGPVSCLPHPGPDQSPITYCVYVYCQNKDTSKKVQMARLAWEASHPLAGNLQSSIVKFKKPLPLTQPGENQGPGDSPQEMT
ALR inh: inhibitors of human ALR sulfhydryl oxidase, primary screen, biochemical, H2O2 detection, HRP-luminol luminescence, single point. FAD-linked sulfhydryl oxidase ALR (Homo sapiens), P55789. purified ALR, DTT oxidation. inhibition, % (test concentration not listed). 290,000 compounds, 3.8% hits;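 active = mean and each replicate at 75% or more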;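 also: stock transfer was 7.5 nL into about 7.5 µL; 0% = neutral wells and 100% = wells with inactivated enzyme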
UCH37 inh: inhibitors of human UCH37 deubiquitinase, primary screen, biochemical, Ub-AMC cleavage, fluorescence | Ubiquitin carboxyl-terminal hydrolase isozyme L5 (Homo sapiens), Q9Y5K5 | purified proteasome/UCH37 | inhibition, % (concentration not given with the values) | 330,000 compounds, 0.33% hits | AID 588478, 2011;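 active = mean of two replicates above 20%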;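 also: 0% = compound-free wells with enzyme and 100% = wells lacking proteasome; stock transfer was 100 nL into about 20 µL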
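system = Proteasome-associated human UCH37 deubiquitinase | amount = 0.15 nM proteasome as dispensed | medium = pH 7.4 Tris-HCl (50 mM) with ovalbumin, ATP-MgCl2, DTT | incubation = 30 min preincubation with enzyme, 25 min cleavage at room temperature | detection = AMC fluorescence 355/460 nm | read-out basis = percent inhibition | controls = no-proteasome and no-compound wells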
FGF22 binding: binders of human FGF22 protein, primary screen, FGF22 synaptogenesis inhibitor project, biophysical, thermal shift, single point; calls only at 9.99 µM; 340,000 compounds, 1.5% hits; recombinant FGF22 thermal shift, SYPRO orange fluorescence; percent of sucrose octasulfate shift, DMSO zero; AID 651658, 2012; Fibroblast growth factor 22 (Homo sapiens), Q9HCT0;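 active = melting point raised past a set limit in the mean and every replicate; three in four hits are not shown here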
Ecoli growth: E. coli growth inhibition, primary screen, OD600. Escherichia coli growth, 23 h; active compounds read low. OD600 absorbance (concentration not given with the values). 330,000 compounds, 0.21% hits. AID 1053175, 2014;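 active = OD600 absorbance below the run mean of sample wells minus 3.6 SD, in any replicate, cut at about 0.56 in these data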;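 also: stock transfer was 300 nL into about 60 µL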
HNF4A DNA FP: change in binding of human HNF4A to DNA, primary screen, biochemical, fluorescence polarization, FITC-DNA. 1 h. activity change, % at 10 µM. Hepatocyte nuclear factor 4-alpha (Homo sapiens), P41235. 360,000 compounds, 0.3% hits; in the data active = activity change above about 30%, passing the limit was not always enough;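 also: controls were the assay level and a saturating level of protein; the project sought stronger binding though the title names inhibitors; some compounds called inactive have numbers as strong as hits; positive values seem to mean higher polarization but the record does not say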
Active calls of the source: *; i = inactive; . = no result given. Some of the compounds tested; the hit share may differ from the screen's.

SMILES	Beta2AR agonist	LANA-H2A inh	ALR inh	UCH37 inh	FGF22 binding	Ecoli growth	HNF4A DNA FP
CCOC(=O)c1cn(CC(=O)Nc2ccc(C)cc2)nn1	9.6	-3.6	.	1.3	.	0.665	-1.6
COC(=O)C1=CN(Cc2ccc(OC)c(OC)c2)C=C(C(=O)OC)C1c1ccccc1F	10.1	1.1	-3.0	i	i	0.683	2.0
O=C(CCC(=O)OCc1ccc([N+](=O)[O-])cc1)Nc1ccccc1Cl	3.5	-0.7	-28.1	1.5	i	0.718	0.3
CC(C)(C)C(=O)NC1CCN(S(C)(=O)=O)CC1	4.0	13.4	-1.1	2.7	i	0.679	0.0
CCOC(=O)C1=CN(Cc2cccc(F)c2)S(=O)(=O)N(C)C1c1cccc(OC)c1 (stereo unspecified)	7.5	.	.	-2.1	i	0.691	0.2
CC[C@@H](C)[C@H](NC(=O)OCc1ccccc1)c1nnc([C@@H](NC(=O)OCc2ccccc2)[C@@H](C)CC)o1	1.5	6.9	5.3	-0.3	i	.	-0.3
CCOC(=O)C1=C(C)NC(=NC)SC1c1ccccc1 (stereo unspecified)	-0.8	-4.7	4.8	3.2	i	0.702	1.0
CCN1CCCC1CNC(=O)C1CCN(Cc2nc(-c3cccc(Br)c3)oc2C)CC1 (stereo unspecified)	18.4	4.4	-10.2	3.6	.	0.6	2.8
C(=N\N1CCN(C2c3ccccc3-c3ccccc32)CC1)/c1ccncc1	1.2	1.6	-2.0	.	.	.	3.2
Cc1cccc(CN2CCN(C(=O)c3ccccc3F)CC2)c1	-3.2	8.8	0.8	5.1	.	0.726	2.9
O=C(CSc1ccc(Cl)cc1)Nc1cccc(NC(=O)c2ccco2)c1	4.9	1.4	-6.6	2.4	.	0.65	-2.2
N#Cc1ccccc1S(=O)(=O)N1CCN(S(=O)(=O)c2ccc(Br)c(C(=O)O)c2)CC1	4.9	4.9	-1.6	3.2	i	0.713	-0.9
CCN1CCN(Cc2c(O)ccc3c(=O)c(-c4ccc(OC)c(OC)c4)c(C)oc23)CC1	4.2	0.5	-3.1	-122.8	.	0.688	0.6
CC12CCC(=O)N1C(C(=O)Nc1ccccc1N1CCCC1)CS2 (stereo unspecified)	-4.6	.	.	-0.1	i	0.67	-1.0
Cc1ccc(NC(=O)CSc2nncn2-c2ccccn2)cc1Cl	-20.5	0.5	-7.1	5.8	i	0.678	-2.2
CCOC(=O)N1CCC(N(CCN(C)C)C(=S)Nc2ccc(OCC)cc2)CC1	.	-0.9	-2.2	1.6	i	0.666	.
CC(C)c1cc(C(=O)N2CCCC(CCC(=O)NCc3ccccc3F)C2)n(C)n1 (stereo unspecified)	3.9	0.0	-14.5	1.5	i	0.732	-1.2
Cc1ccc(S(=O)(=O)N2CCC(C(=O)Nc3ncccc3O)CC2)cc1	-1.8	-1.6	2.8	1.5	i	0.704	-3.6
CSc1ccc(/C=N/S(=O)(=O)c2ccccc2)cc1	6.2	0.9	-4.5	.	i	.	0.2
Cc1cc(C(=O)N2CCN(c3ccccn3)CC2)no1	7.2	-0.8	-8.0	1.0	.	0.706	-0.6
CCOc1cccc(CN2CCN(CCc3ccccc3)C(CCO)C2)c1O (stereo unspecified)	4.5	-2.9	22.6	6.1	i	0.699	0.5
CCN1CCN(c2ccc(S(=O)(=O)N3CCCCC3)cc2NC(=O)c2cccc(F)c2)CC1	27.1	1.0	-0.5	2.4	i	0.656	1.2
CCOC(=O)[C@@H]1CSCCS(=O)(=O)N1Cc1ccccc1Br	0.5	.	.	.	i	.	-0.8
CC(=O)Nc1ccc2c(c1)nc1n2CCOC1	-1.0	-1.0	-5.2	4.4	.	0.67	0.7
Cc1ccc(S(=O)(=O)N(C)c2ccccc2)cc1	-10.5	5.7	-1.1	-1.7	.	0.726	1.0
CCc1c(C(=O)NNC(=O)Nc2ccc3c(c2)OCO3)csc1C	1.0	-6.6	17.3	2.7	i	0.701	-1.5
O=C(C1CC1)N1N=C(c2ccccc2)CC1(O)C(F)(F)F (stereo unspecified)	-8.3	-1.0	-13.3	4.4	i	0.701	0.4
CCOC(=O)N/N=C1\CC(C)CC(C)(C)C1 (stereo unspecified)	-6.7	.	.	.	i	.	4.6
CC1(c2ccccc2)NC(=O)N(CC(=O)Nc2cccc(/C=C/c3ccccn3)c2)C1=O (stereo unspecified)	13.3	-4.3	-7.5	-3.0	i	0.635	5.2
O=C(CSc1nnc(CNC(=O)c2ccccc2)o1)NCc1ccccc1Cl	-8.5	-1.1	-2.2	2.6	i	0.698	-0.3

Some of these compounds in order of heavy-atom count, high to low:
SMILES	Beta2AR agonist	LANA-H2A inh	ALR inh	UCH37 inh	FGF22 binding	Ecoli growth	HNF4A DNA FP
CC[C@@H](C)[C@H](NC(=O)OCc1ccccc1)c1nnc([C@@H](NC(=O)OCc2ccccc2)[C@@H](C)CC)o1	1.5	6.9	5.3	-0.3	i	.	-0.3
CCN1CCN(c2ccc(S(=O)(=O)N3CCCCC3)cc2NC(=O)c2cccc(F)c2)CC1	27.1	1.0	-0.5	2.4	i	0.656	1.2
CC1(c2ccccc2)NC(=O)N(CC(=O)Nc2cccc(/C=C/c3ccccn3)c2)C1=O (stereo unspecified)	13.3	-4.3	-7.5	-3.0	i	0.635	5.2
CCN1CCCC1CNC(=O)C1CCN(Cc2nc(-c3cccc(Br)c3)oc2C)CC1 (stereo unspecified)	18.4	4.4	-10.2	3.6	.	0.6	2.8
N#Cc1ccccc1S(=O)(=O)N1CCN(S(=O)(=O)c2ccc(Br)c(C(=O)O)c2)CC1	4.9	4.9	-1.6	3.2	i	0.713	-0.9
CCOC(=O)N1CCC(N(CCN(C)C)C(=S)Nc2ccc(OCC)cc2)CC1	.	-0.9	-2.2	1.6	i	0.666	.
CCOc1cccc(CN2CCN(CCc3ccccc3)C(CCO)C2)c1O (stereo unspecified)	4.5	-2.9	22.6	6.1	i	0.699	0.5
C(=N\N1CCN(C2c3ccccc3-c3ccccc32)CC1)/c1ccncc1	1.2	1.6	-2.0	.	.	.	3.2
Cc1ccc(S(=O)(=O)N2CCC(C(=O)Nc3ncccc3O)CC2)cc1	-1.8	-1.6	2.8	1.5	i	0.704	-3.6
O=C(CCC(=O)OCc1ccc([N+](=O)[O-])cc1)Nc1ccccc1Cl	3.5	-0.7	-28.1	1.5	i	0.718	0.3
CCc1c(C(=O)NNC(=O)Nc2ccc3c(c2)OCO3)csc1C	1.0	-6.6	17.3	2.7	i	0.701	-1.5
CCOC(=O)[C@@H]1CSCCS(=O)(=O)N1Cc1ccccc1Br	0.5	.	.	.	i	.	-0.8
CCOC(=O)c1cn(CC(=O)Nc2ccc(C)cc2)nn1	9.6	-3.6	.	1.3	.	0.665	-1.6
CCOC(=O)C1=C(C)NC(=NC)SC1c1ccccc1 (stereo unspecified)	-0.8	-4.7	4.8	3.2	i	0.702	1.0
Cc1ccc(S(=O)(=O)N(C)c2ccccc2)cc1	-10.5	5.7	-1.1	-1.7	.	0.726	1.0
CC(=O)Nc1ccc2c(c1)nc1n2CCOC1	-1.0	-1.0	-5.2	4.4	.	0.67	0.7
CCOC(=O)N/N=C1\CC(C)CC(C)(C)C1 (stereo unspecified)	-6.7	.	.	.	i	.	4.6

Other compounds follow:
SMILES	Beta2AR agonist	LANA-H2A inh	ALR inh	UCH37 inh	FGF22 binding	Ecoli growth	HNF4A DNA FP
CC(NC(=O)c1cc(-c2cccs2)on1)c1ccccc1 (stereo unspecified)	1.4	2.1	-21.5	0.5	.	0.742	-1.2
CN1C(=O)c2ccccc2N(C)C1c1ccccc1Cl (stereo unspecified)	-5.5	1.3	1.2	-402.4	i	0.649	-1.4
CC(O)c1ccc(Oc2cnccn2)cc1 (stereo unspecified)	-4.1	-7.3	0.9	1.1	i	0.684	-0.8
Cc1cc(Cl)ccc1C(=O)C1CCCN(C(=O)CN2CCOC2=O)C1 (stereo unspecified)	-1.1	4.1	-5.9	-1.8	i	0.698	-1.6
Fc1ccccc1CSc1ncnc2c1ncn2C1CCCCO1 (stereo unspecified)	1.2	.	.	0.1	i	0.632	2.0
O=C(O)Cn1nc(C(F)(F)F)c2c1CCCC2	3.5	4.7	0.3	2.5	i	0.661	0.5
CCn1c(COc2cccc(C)c2)nnc1SCC(=O)CC(=O)Nc1ccccc1OC	9.7	-1.5	74.0	2.5	.	0.599	0.3

Compound activity as filed in PubChem BioAssay.
